# Compound activity as filed in PubChem.
# KCNQ2 enhance: potentiators of rat KCNQ2 potassium channel; CHO-K1 KCNQ2, FluxOR thallium flux fluorescence; active compounds read high; B-score at 10 µM; 0.54% of 310,000 active;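 active = fluorescence ratio B-score at least 3 SD of library B-scores, with initial fluorescence B-score within 3 SD, cut at about 5.3 in these data; same plate scores as AID 2156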;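 also: B-score of peak minus minimum over baseline fluorescence ratio after K+ and Tl+ stimulus; positive B-score means potentiation of KCNQ2 with more thallium influx and brighter signal; only the inactives scoring about 0 or higher are listed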
# Target sequence (O88943 whole entry, looked up): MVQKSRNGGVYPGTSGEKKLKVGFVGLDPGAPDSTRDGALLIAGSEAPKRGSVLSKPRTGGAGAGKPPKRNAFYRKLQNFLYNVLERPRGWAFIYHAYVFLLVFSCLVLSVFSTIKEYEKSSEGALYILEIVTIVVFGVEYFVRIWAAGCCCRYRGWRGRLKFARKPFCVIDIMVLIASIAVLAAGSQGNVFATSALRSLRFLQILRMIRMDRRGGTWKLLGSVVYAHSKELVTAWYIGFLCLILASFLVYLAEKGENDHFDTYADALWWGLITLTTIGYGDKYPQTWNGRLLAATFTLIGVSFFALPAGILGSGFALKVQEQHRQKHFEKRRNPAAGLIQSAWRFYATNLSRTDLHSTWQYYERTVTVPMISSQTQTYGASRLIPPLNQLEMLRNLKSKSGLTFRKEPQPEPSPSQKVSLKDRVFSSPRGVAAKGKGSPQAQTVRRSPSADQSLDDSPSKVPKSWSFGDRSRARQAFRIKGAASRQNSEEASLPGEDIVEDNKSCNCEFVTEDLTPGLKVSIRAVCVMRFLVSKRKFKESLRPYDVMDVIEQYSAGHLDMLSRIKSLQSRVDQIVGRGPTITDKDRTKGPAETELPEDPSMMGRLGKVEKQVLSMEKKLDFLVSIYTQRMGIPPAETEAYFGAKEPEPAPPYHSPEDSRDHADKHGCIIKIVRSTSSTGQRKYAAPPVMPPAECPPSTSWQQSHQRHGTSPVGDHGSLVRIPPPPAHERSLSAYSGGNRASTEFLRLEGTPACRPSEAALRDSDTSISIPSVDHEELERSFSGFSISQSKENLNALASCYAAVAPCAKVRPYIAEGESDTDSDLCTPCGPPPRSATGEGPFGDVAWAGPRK
# KCNQ2 enhance baseline: second read-out of KCNQ2 enhance, no call of its own (marks repeat the call); B-score; compound at 10 µM; measured here: initial fluorescence intensity artifact check;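 brightness before thallium and not channel activity; 0 = typical well and far values either way flag optical interference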
# * marks the source's active call; other numbers are inactive results. Only part of the results is shown. The share of hits here may be higher or lower than overall.
structure	KCNQ2 enhance baseline	KCNQ2 enhance
CCOCCn1c(CN2CCOCC2)nc2c1c(=O)[nH]c(=O)n2C	-0.11	0.09
COCCN(CCOC)S(=O)(=O)c1ccc(C(=O)Nc2nnc(C)o2)cc1	-1.6	2.71
O=C(N/N=C/C=C/c1ccc2c(c1)OCO2)c1ccc([N+](=O)[O-])cc1	0.88	0.63
CC1CC(CC(C)C(=O)Nc2nncs2)C(=O)O1 (centres undefined)	-0.66	2.08
COc1ccc(C)cc1S(=O)(=O)N1CCCC(N2CCOCC2)C1 (centres undefined)	1.51	0.13
Cc1nnc(SCC(=O)N2CCc3ccccc3C2)n1-c1ccccc1	-0.35	0.37
O=S1(=O)N=C(N(CCO)/N=C/c2ccncc2)c2ccccc21	-0.17	0.82
C=CCN(CC=C)C(=O)c1c(OC)cccc1OC	-0.87	0.46
Cc1ccc2[nH]c(=O)c(CN(Cc3ccco3)C(=O)c3ccncc3)cc2c1	0.01	0.05
O=C(C1CC1)N1CCc2cc(Br)cc(S(=O)(=O)NCc3ccc4c(c3)OCO4)c21	-0.1	0.6
CCCCCCN1CC(O)=C(c2nc3ccccc3[nH]2)C1=N	-0.38	0.11
CC(c1ccco1)N(C(=O)c1ccccc1NS(=O)(=O)c1cc([N+](=O)[O-])ccc1Cl)c1ccccn1 (centres undefined)	-0.53	1.5
OCC1(Cc2ccccc2)CCN(Cc2ccc(-c3ccco3)cc2)CC1	-0.54	0.69
CC(C)(C)c1ccc(NC(=O)Nc2ccc(F)cc2)cc1	-1.44	0.76
CC(=O)c1cccc(NC(=O)C2CCCCC2)c1	-1.85	1.62
Cc1ccc2nc(NC(=O)COC(=O)CSc3nc(C)cc(C)n3)sc2c1	0.6	0.14
COc1cc(OC)c(OC)cc1CN1CCCC(C(=O)c2ccccc2SC)C1 (centres undefined)	1.41	0.26
COc1ccc(C=O)cc1CN1CCCN(Cc2ccccc2F)S1(=O)=O	0.23	2.04
c1csc(Cc2nn3c(-c4ccncc4)nnc3s2)c1	-1.3	1.03
COc1ccc(-c2cn[nH]c2-c2ccc(OCC(=O)NN)cc2O)cc1	-0.39	0.26
Oc1ccc(N=Nc2ccc(Br)cc2)c(O)c1	-0.06	0.38
CCn1c(NCCc2ccc(OC)c(OC)c2)nc2c1c(=O)n(C)c(=O)n2C	-0.01	1.8
CCc1cccc(C)c1NC(=S)NCc1ccccc1	-1.86	1.64
CC(C)C(=O)NC(=S)Nc1ccc(CN2CCOCC2)cc1	-1.16	1.05
Cc1cccc(Sc2nc(-c3ccccc3)ncc2C(=O)O)c1	-1.47	2.03

# Going on with the list:
structure	KCNQ2 enhance baseline	KCNQ2 enhance
O=C(CSc1nnc(NC(=O)C2CCCCC2)s1)NCc1ccco1	-1.69	1.22
O=C(CCNS(=O)(=O)c1ccccc1C(F)(F)F)NCC(c1ccco1)N1CCCCC1 (centres undefined)	-0.89	0.38
Cn1c(=O)n(Cc2ccccc2)c(=O)c2c1nc1n2CCCN1Cc1ccccc1	-0.3	0.64
Cc1nc2sccn2c(=O)c1S(=O)(=O)N1CCN(c2ccc(F)cc2)CC1	1.13	0.73
COc1ccc(C(=O)NC(=S)Nc2ccc3oc(=O)ccc3c2)cc1[N+](=O)[O-]	1.03	0.22
CCOC(=O)C1CCN(C(=O)Nc2ccc3snnc3c2)CC1	0.03	1.7
Cc1ccccc1C(=O)NC(=S)Nc1ccccc1C(F)(F)F	-2.04	0.36
O=C(CCc1nnc2ccc(NCc3ccco3)nn12)N1CCN(c2ccccc2F)CC1	-1.6	0.02
COc1cc(=O)[nH]c(SCc2c(F)c(F)c(F)c(F)c2F)n1	0.1	0.64
O=C(c1ccc2c(c1)N(Cc1ccccc1F)C(=O)c1ccccc1S2(=O)=O)N1CCCC1	1.8	1.34
O=C(NCc1ccc(F)cc1)C1CCCN1C(=O)NCc1ccccc1 (centres undefined)	-0.35	0.73
O=C(Nc1ccc(Cl)c(Cl)c1)N1CCSC1c1ccco1 (centres undefined)	-0.21	3.25
O=C(CC(=O)Nc1nc(C23CC4CC(CC(C4)C2)C3)cs1)NCCO	-0.39	3.28
O=[N+]([O-])c1cccc(-c2nnc3ccccn23)c1	1.97	0.67
Cc1nc(-c2cc(C#N)c(Sc3cccc(C(F)(F)F)c3)nc2C)cs1	0.35	1.22
Cc1ccc(-c2nc(N3CCOCC3)sc2C(=O)N2CCOCC2)cc1	1.11	0.37
COc1ccc(-c2nc(N3CCOCC3)nc3n[nH]c(N)c23)cc1	-0.72	0.59
CCOc1ncccc1C(=O)Nc1ccc(F)c(F)c1	-0.55	1.36
CN1C2=NCCN2C(=O)c2ccccc21	1.5	0.5
NC(=O)c1c(NC(=O)C2CCCO2)sc2c1CCCCC2 (centres undefined)	-1.65	1.07
Cc1ccc2cc3cc(C(=O)NCCC(C)C)oc3nc2c1	-2.05	0.76
CC(=O)NC(CC(=O)O)c1ccccc1 (centres undefined)	-0.45	0.57
COc1ccc(-n2nc(C(=O)Nc3ccc(OC)c(OC)c3)c3c4ccccc4n(C)c3c2=O)cc1	0.97	0.14
Cc1c(OCC(=O)NC2CC(C)(C)NC(C)(C)C2)ccc2c1oc(=O)c1ccccc12	-1.1	1.17
CCCn1c(SCC(=O)Nc2ccccc2Cl)n[nH]c1=O	-0.14	0.73

# Going on with the list.
structure	KCNQ2 enhance baseline	KCNQ2 enhance
Cc1ccc(C(=O)OCC(=O)N2CCOCC2)c(C)c1	-0.89	1.23
C/C(=N\Nc1nc(N)cc(Cl)n1)c1cccc(N)c1	0.01	1.68
C#CCn1c(=NC(=O)CN2C(=O)CCC2=O)sc2cccc(OC)c21	2.66	1.25
CCOc1ccc(C)cc1S(=O)(=O)N1CCCCC1	-0.72	0.15
NS(=O)(=O)c1ccc(Nc2nc(-c3ccc(O)cc3)cs2)cc1	-0.53	1.42
CCOc1ccccc1NC(=O)C1CCCN(S(=O)(=O)c2ccc(OC)c(C)c2)C1 (centres undefined)	-0.12	0.14
Cc1ccc(Sc2ccc(N)cc2C#N)cc1	1.54	1.59
CC1=CC(C)(C)n2c(O)c(N=NC(N)=S)c3c(C)ccc1c32	-1.45	0.15
CCc1cccc(C)c1NC(=O)Cc1ccsc1	-0.33	2.99
Cc1cccc(NS(=O)(=O)c2cccc([N+](=O)[O-])c2)n1	-0.65	0.14
CCCn1c2c(c(=N)c3c1CCC3)CCC2	-2.82	0.3
CCCCCn1c(Br)nc2c1c(=O)n(CC(N)=O)c(=O)n2C	-1.7	1.02
O=C(CCNS(=O)(=O)c1ccc(Br)s1)NCc1ccc2c(c1)OCO2	1.23	2.9
Cc1ccc(N=C2N=C(N)c3ccccc32)c(C)c1	1.12	0.03
Cc1cc2nc3ccc(=[N+](C)C)cc-3sc2cc1N	-4.64	0.95
C/C(=N/NC(=O)c1ccc(-c2ccccc2)cc1)c1cc(O)cc(O)c1	-0.4	0.88
Cc1ccc(NCC(O)C(O)C(O)CO)c(N=Nc2ccccc2)c1C (centres undefined)	-0.53	1.57
C#CCOc1c(Br)cc(/C=C2/C(=O)ON=C2C)cc1OC	0.17	0.06
S=C(NCCc1ccccc1)Nc1ccccc1Cl	0.73	0.13
COc1nc(NS(=O)(=O)c2ccc(C)cc2)nc(C)c1Cl	-2	0.05
CCN(NC(=O)C(O)(c1ccc(F)cc1)c1ccc(F)cc1)C(=O)c1ccccc1	-1.14	0.18
COC(=O)c1cc(Br)c(=O)n(Cc2ccc3c(c2)OCO3)c1	2.6	0.24
CCNC(=O)CC(=O)Nc1ccccc1C(=O)O	-3.51	0.01
C(=C\c1ccccc1)/C=N/n1cnnc1	1.71	1.27
O=C(CN(C(=O)CCNC(=O)c1ccco1)c1ccccc1)NC1CCCC1	-0.53	1.19

# Other results.
structure	KCNQ2 enhance baseline	KCNQ2 enhance
O=C(CSc1ncn(-c2ccccc2)n1)Nc1nccs1	-1.95	0.06
CC(C)C(=O)Nc1nc2cc3c(cc2s1)OCO3	1.01	0.15
CC(C)(C)NC(=O)CSC(=Nc1ccccc1F)NC#N	-0.68	0.93
O=C(Cn1c(=O)oc2ccccc21)N1CCOCC1	-0.12	1.63
CN1CCN(NC(=O)CN(C)S(=O)(=O)c2cc(Cl)ccc2Cl)CC1	-1.38	1.88
CCOc1cccc(C(=O)NC(=S)Nc2ccccc2)c1	-0.56	0.03
CC1(C)Cc2c(C#N)c(N)n(-c3ccccc3)c(=O)c2CO1	1.14	0.46
COc1ccc(-c2csc(N3CCC(c4ccccc4)CC3)n2)cc1	0.29	0.04
CN(C(=O)c1ccccc1)c1nccnc1C#N	-0.09	0.41
CN(C)c1nnnn1-c1ccccc1Oc1ncc(C(F)(F)F)cc1Cl	-0.78	0.97
CCn1cc(S(=O)(=O)Nc2cc(C)ccc2F)cn1	-0.45	0.55
OC(COc1ccccc1F)CN1CCC(Cc2ccccc2)CC1 (centres undefined)	0.21	0.96
COC(=O)Cc1c(C)c2ccc(OCC(=O)N3CCCC3)c(C)c2oc1=O	-0.52	1.04
CN(C)S(=O)(=O)c1ccc(C(=O)Nc2ccccc2C(=O)O)cc1	-0.02	0.68
O=C(OCc1ccc(F)cc1)c1cc(=O)c2ccccc2o1	-0.5	1
Cc1ccc(-c2c(C(=O)N/N=C/C3CC=CCC3)nnn2-c2nonc2N)cc1 (centres undefined)	0.91	0.63
O=C(Cc1ccc(Cl)cc1)NCCCn1ccnc1	-2.33	0.81
COCc1nc2sc(C)c(C)c2c(=O)[nH]1	1.29	1.5
CCN(CC)c1ccc(NC(=O)CCCOc2cccc(C)c2)cc1	0.56	2.05
O=C1c2ccccc2-c2c1cccc2C(=O)N1CCOCC1	-0.57	1.02
Cc1ccc(-n2cc(C(=O)c3ccc4ccccc4c3O)cn2)cc1	0.04	1.31
NC(=O)Nc1ccc2c(c1)OCCO2	-0.01	2.15
CCCS(=O)(=O)N1CCCC(C(=O)Nc2ccc3c(c2)CCC3)C1 (centres undefined)	2.14	0.34
O=C(NNC(=S)NC1CC2C=CC1C2)c1cccnc1 (centres undefined)	0.03	0.88
CCCNc1nc2c(c(=O)[nH]c(=O)n2C)n1Cc1cccc(Br)c1	0.33	0.22

# Carrying on:
structure	KCNQ2 enhance baseline	KCNQ2 enhance
CCc1ccc(/C=C2/SC(N3CCOCC3)=NC2=O)cc1	3.1	2.84
CCC(=O)Nc1c(C(=O)Nc2ccc3c(c2)OCCO3)oc2ccccc12	-1.11	0.51
COC(=O)/C=C/S(=O)(=O)c1ccc(NC(C)=O)cc1	0.02	3.78
O=C(Nc1nnc(SCc2ccccc2)s1)c1cccs1	1.01	0.79
S=C(NCCc1ccccc1)NC1CC1	0.48	0.22
COc1ccc(N/C=C\C(=O)c2ccc(C)cc2)cc1OC	-0.18	0.84
NC(=O)C1CCN(C(=O)NC(=O)c2ccccc2)CC1	-0.65	0.07
CC(C)[C@H](NC(=O)[C@@H]1CSC2c3ccccc3C(=O)N21)C(=O)NC1CCCC1 (some centres undefined)	-1.48	1.33
O=C(Nc1cccc2ccccc12)OC1C=CS(=O)(=O)C1 (centres undefined)	0.37	0.1
O=C(Cc1ccc(F)cc1)NCCc1ccccc1	-0.57	1.35
O=C(COC(=O)C1CC2CCCC(C1)C2=O)NC(=O)c1ccc(OC(F)F)cc1 (centres undefined)	1.25	1.05
Cc1cccc(C)c1C(=O)N[C@@H](Cc1ccccc1)C(=O)O	-0.41	0.49
Cc1cc(C)c2[nH]c(=O)c(CN(Cc3nnnn3C3CCCC3)C3CCCCC3)cc2c1	2.74	0.72
CC(C)Nc1nc(SCC(N)=O)nc(N2CCOCC2)n1	0.64	1.07
COc1ccc(-c2csc(NC(=O)c3ccc(S(=O)(=O)N4CCc5ccccc5C4)cc3)n2)c(OC)c1	-0.6	0.84
Cc1occc1C(=O)Nc1ccc(S(N)(=O)=O)cc1	1.76	0.34
COC(=O)CNC(=O)c1ccccc1[N+](=O)[O-]	0.97	0.02
CC(C)NC(=O)c1ccc(N(Cc2ccccc2)S(C)(=O)=O)cc1	-1.28	2.13
CC(NC(=S)NC1CCCCC1)c1ccc(C(C)(C)C)cc1 (centres undefined)	0.1*	9.86*
CCOc1ccc(-n2ccnc2SCC(=O)Nc2cc(C)on2)cc1	0.69	0.78
CCn1c(=N)c(S(=O)(=O)c2ccc(Cl)cc2)cc2c(=O)n3ccccc3nc21	-0.26	0.12
O=C1c2ccccc2C(=O)C1Cc1cccc2ccccc12	0.46	1.26
Cc1cccc(-n2nc([N+](=O)[O-])c(=NC3CCN(Cc4ccccc4)CC3)n2O)c1	0.23	0.01
CC1CC(C)CN(C(=O)CNS(=O)(=O)c2cccs2)C1 (centres undefined)	0.52	0.04
COc1cccc(CNCCN2CCOCC2)c1OC	-0.71	0.9
O=C(c1cccs1)N1CCN(c2nc3c(F)cc(F)cc3s2)CC1	0.2	0.46
O=C1CC(C(=O)N2CCOCC2)C2(CCCC2)O1 (centres undefined)	-0.97	0.07
COc1cc(O)c2c(c1)OC(C)(C)CC2=O	-2.25	2.6

# Entries of single compounds from above:
# Shown for COc1ccc(-c2csc(NC(=O)c3ccc(S(=O)(=O)N4CCc5ccccc5C4)cc3)n2)c(OC)c1 = KCNQ2 enhance baseline: -0.6; KCNQ2 enhance: 0.84
# Shown for O=C(Nc1nnc(SCc2ccccc2)s1)c1cccs1 = KCNQ2 enhance baseline: 1.01; KCNQ2 enhance: 0.79
# Shown for S=C(NCCc1ccccc1)NC1CC1 = KCNQ2 enhance baseline: 0.48; KCNQ2 enhance: 0.22
